Assay outcomes: PubChem BioAssay, National Center for Advancing Translational Sciences (NCATS)
Bst PK mod: alters activity of Bacillus stearothermophilus pyruvate kinase | partly purified Bacillus stearothermophilus pyruvate kinase, luminescence ATP production; ribose 5-phosphate activator present at AC10 | Potency, µM | actives 1.2% (n = 51,000); in the data active means potency below about 11 µM; inconclusive means mostly about 12 µM to 25 µM; inactive means weaker than that;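 the screen sought inhibitors and activators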;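 further: potency means the concentration at half of the fitted maximal effect; scaled between full activation by ribose 5 phosphate and full inhibition by luteolin; about four in five hits inhibit and the cells do not say which; series up to 57 µM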
TsaE inh: inhibitors of E. coli YjeE (TsaE); P0AF67; purified YjeE, fluorescence polarisation of a bound ADP probe; Potency, µM; actives 0.05% (n = 71,000); AID 605; active = well fitted falling curve; inconclusive = weaker or top-dose-only fall, or a rising curve; inactive = flat or poorly fitted curve;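 further: top concentration of the series not given in the record; excess ADP was the control for the full effect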
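Purified YjeE (10 uM) with BODIPY Texas Red-labeled ADP probe (2 uM); compounds pin-transferred, 15 min at room temperature. Binding inhibition read as decreased fluorescence polarization; ADP titration as control.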
Numbers without * were called inactive; i = inactive; ? = inconclusive; . = no result given.

The first 3 entries, to show the layout:
#1 C=CCOC(=O)C1=C(C)OC(N)=C(C(=O)OCC)C12C(=O)N(CC(N)=O)c1ccccc12 (centres undefined)
  Bst PK mod: >57 | TsaE inh: i
#2 O=[N+]([O-])c1ccc(O)c([N+](=O)[O-])c1
  Bst PK mod: . | TsaE inh: i
#3 Oc1cc(Cl)c(Cl)cc1Cl
  Bst PK mod: . | TsaE inh: i

All compounds of this part, from the first entry:
#1 C=CCOC(=O)C1=C(C)OC(N)=C(C(=O)OCC)C12C(=O)N(CC(N)=O)c1ccccc12 (centres undefined)
  Bst PK mod: >57 | TsaE inh: i
#2 O=[N+]([O-])c1ccc(O)c([N+](=O)[O-])c1
  Bst PK mod: . | TsaE inh: i
#3 Oc1cc(Cl)c(Cl)cc1Cl
  Bst PK mod: . | TsaE inh: i
#4 OCCCBr
  Bst PK mod: . | TsaE inh: i
#5 CN1C[C@H](CO)C=C2c3cccc4[nH]cc(c34)C[C@@H]21
  Bst PK mod: . | TsaE inh: i
#6 c1nc(N2CC2)c2cnn([C@@H]3CCCCO3)c2n1
  Bst PK mod: . | TsaE inh: i
#7 O=C(COc1ccc(Br)cc1)N1CCN(C2CCCC2)CC1
  Bst PK mod: . | TsaE inh: i
#8 O=[N+]([O-])c1cccc(CCl)c1
  Bst PK mod: . | TsaE inh: i
#9 CC(C)[C@]1(O)[C@@H](OC(=O)c2ccc[nH]2)[C@]2(O)[C@@]3(C)C[C@@]4(O)O[C@@]5([C@H](O)[C@@H](C)CC[C@]35O)[C@]2(O)[C@]41C
  Bst PK mod: . | TsaE inh: i
#10 O=C(NCC(c1cccnc1)N1CCN(c2ccccc2F)CC1)Oc1ccccc1 (centres undefined)
  Bst PK mod: >57 | TsaE inh: i
#11 O=C1NCCN2CCCC12 (centres undefined)
  Bst PK mod: >25.6 | TsaE inh: .
#12 O=C(O)C(Oc1nc(=S)[nH]c(=S)[nH]1)(c1ccc(Cl)cc1)c1ccc(Cl)cc1
  Bst PK mod: . | TsaE inh: i
#13 COc1ccc2c(c1)c(C(=O)O)c(C)n2CC(C)C
  Bst PK mod: >25.6 | TsaE inh: .
#14 COc1cccc(OCC(=O)N2CCN(C)CC2)c1
  Bst PK mod: . | TsaE inh: i
#15 Nc1ncc(P(=S)(N2CCOCC2)N2CCOCC2)s1
  Bst PK mod: >25.6 | TsaE inh: .

Filtered by structure: the compounds so far containing sulfur (2)
#12 O=C(O)C(Oc1nc(=S)[nH]c(=S)[nH]1)(c1ccc(Cl)cc1)c1ccc(Cl)cc1
  Bst PK mod: . | TsaE inh: i
#15 Nc1ncc(P(=S)(N2CCOCC2)N2CCOCC2)s1
  Bst PK mod: >25.6 | TsaE inh: .

New compounds follow.
#16 COc1ccc(CNC(=O)/C=C\c2ccc3[nH]cc(CCN(C)C)c3c2)cc1
  Bst PK mod: . | TsaE inh: i
#17 Cc1sc2ncn(CC(=O)N3CCC4(CC3)OCCO4)c(=O)c2c1C
  Bst PK mod: >57 | TsaE inh: i
#18 N#Cc1cc2c(nc1SCC(=O)Nc1ccc(Cl)cc1)C1CCN2CC1
  Bst PK mod: >57 | TsaE inh: i
#19 CC(C)CCNC(=O)c1c(N)n(CC2CCCO2)c2nc3ccccc3nc12 (centres undefined)
  Bst PK mod: >57 | TsaE inh: i
#20 O=c1[nH]c(=O)n(Cc2ccccc2)c(O)c1C=NCCCO
  Bst PK mod: . | TsaE inh: i
#21 CCOc1cccc(C2NCc3ccccc3-n3cccc32)c1O (centres undefined)
  Bst PK mod: i | TsaE inh: i
#22 O=C1CC[C@@]2(O)[C@H]3Cc4ccc(O)c5c4[C@@]2(CCN3CC2CC2)[C@@H]1O5
  Bst PK mod: . | TsaE inh: i
#23 CCc1ccc(OCCCN=C(C)c2c(O)n(C)c(=O)n(C)c2=O)cc1
  Bst PK mod: . | TsaE inh: i
#24 COC(=O)[C@@H]1C[C@@H]1[C@@H](NP(=O)(c1ccccc1)c1ccccc1)c1ccccc1
  Bst PK mod: . | TsaE inh: i
#25 CN1CCN(CC(=O)Nc2ccc(Cl)cc2C(=O)c2ccccc2)CC1
  Bst PK mod: >57 | TsaE inh: i
#26 Cc1nc2cc(C(F)(F)F)ccc2n1C1CCN(Cc2nnnn2Cc2cccs2)CC1
  Bst PK mod: >57 | TsaE inh: i
#27 NCC[C@H](O)C(=O)N[C@H]1C[C@@H](N)[C@@H](O[C@H]2O[C@@H](CN)[C@@H](O)[C@@H](O)[C@@H]2N)[C@@H](O[C@H]2O[C@@H](CO)[C@@H](O)[C@@H]2O)[C@@H]1O
  Bst PK mod: . | TsaE inh: i
#28 CC1(C)CC2(CCO1)NCCN1C(=O)CSC12 (centres undefined)
  Bst PK mod: >57 | TsaE inh: i
#29 Cc1ccc(C)c(C2(O)CC(C)N(C)CC2C)c1 (centres undefined)
  Bst PK mod: >25.6 | TsaE inh: .
#30 COc1ccccc1-n1c(O)c(C=NCc2ccc3c(c2)OCO3)c(=O)[nH]c1=O
  Bst PK mod: >57 | TsaE inh: i

#31 C=C(Cl)CSC(=S)N(CC)CC
  Bst PK mod: . | TsaE inh: i
#32 CS(=O)(=O)O[C@H]1CN2CCC1CC2
  Bst PK mod: . | TsaE inh: i
#33 CCOCCN1CCC(OC(C)=O)C(C)C1 (centres undefined)
  Bst PK mod: >11.4 | TsaE inh: .
#34 c1ccc(C2CC3CC4(CCCC4)N2O3)cc1 (centres undefined)
  Bst PK mod: . | TsaE inh: i
#35 NC(=O)c1ccc(OC[C@H](O)CN2CC=C(c3ccc(F)cc3)CC2)cc1
  Bst PK mod: . | TsaE inh: i
#36 C[C@@H](N)Cc1cnc[nH]1
  Bst PK mod: . | TsaE inh: i
#37 O=C(CCc1nc(-c2ccccc2F)no1)N1CCC2(CC1)OCCO2
  Bst PK mod: >57 | TsaE inh: i
#38 CCCCC1(CN2CCCC2=O)C(=O)NC(=O)NC1=O
  Bst PK mod: >25.6 | TsaE inh: .
#39 ClC1=C(Cl)C2(Cl)C3C4C=CC(C4)C3C1(Cl)C2(Cl)Cl (centres undefined)
  Bst PK mod: . | TsaE inh: i
#40 CO[C@@H]([CH2][Hg])CN1C(=O)c2ccccc2S1(=O)=O.Cn1c(=O)c2nc[nH]c2n(C)c1=O
  Bst PK mod: . | TsaE inh: i
#41 CN(C)c1ccc(CN2CC=C(c3ccc(F)cc3)CC2)cc1
  Bst PK mod: . | TsaE inh: i
#42 Cc1ccc2c(c1)C1CN(C)CCC1N2C(=O)Cn1cnc2c1c(=O)n(C)c(=O)n2C (centres undefined)
  Bst PK mod: >57 | TsaE inh: i
#43 CCN(CC)CCCC(C)N=C(c1ccccc1)c1c(O)n(C)c(=O)n(C)c1=O (centres undefined)
  Bst PK mod: >25.6 | TsaE inh: .
#44 Clc1ccc(COC(Cn2ccnc2)c2ccc(Cl)cc2Cl)cc1 (centres undefined)
  Bst PK mod: >11.4 | TsaE inh: i
#45 COC(=O)[C@@]1(Cc2ccccc2)[C@H]2c3cc(C(=O)N(C)C)[nH]c3C[C@H]2CN1C(=O)c1ccccc1
  Bst PK mod: . | TsaE inh: i
#46 Cc1ccc(-n2c(O)c(C=Nc3ccccc3N)c(=O)[nH]c2=O)cc1C
  Bst PK mod: >57 | TsaE inh: ?
#47 CN1CCN(C(=O)O[C@@H]2c3nccnc3C(=O)N2c2ccc(Cl)cn2)CC1
  Bst PK mod: . | TsaE inh: i

From no. 43 as far as 47, copied from above:
#43 CCN(CC)CCCC(C)N=C(c1ccccc1)c1c(O)n(C)c(=O)n(C)c1=O (centres undefined)
  Bst PK mod: >25.6 | TsaE inh: .
#44 Clc1ccc(COC(Cn2ccnc2)c2ccc(Cl)cc2Cl)cc1 (centres undefined)
  Bst PK mod: >11.4 | TsaE inh: i
#45 COC(=O)[C@@]1(Cc2ccccc2)[C@H]2c3cc(C(=O)N(C)C)[nH]c3C[C@H]2CN1C(=O)c1ccccc1
  Bst PK mod: . | TsaE inh: i
#46 Cc1ccc(-n2c(O)c(C=Nc3ccccc3N)c(=O)[nH]c2=O)cc1C
  Bst PK mod: >57 | TsaE inh: ?
#47 CN1CCN(C(=O)O[C@@H]2c3nccnc3C(=O)N2c2ccc(Cl)cn2)CC1
  Bst PK mod: . | TsaE inh: i

Three compounds out of the list, ordered by length of the SMILES, largest number first.
#40 CO[C@@H]([CH2][Hg])CN1C(=O)c2ccccc2S1(=O)=O.Cn1c(=O)c2nc[nH]c2n(C)c1=O
  Bst PK mod: . | TsaE inh: i
#34 c1ccc(C2CC3CC4(CCCC4)N2O3)cc1 (centres undefined)
  Bst PK mod: . | TsaE inh: i
#33 CCOCCN1CCC(OC(C)=O)C(C)C1 (centres undefined)
  Bst PK mod: >11.4 | TsaE inh: .

This is a subset; count on the stated rates, not on these rows.
